# Screens as filed in PubChem.
# MT1-MMP act inh – inhibitors of human MT1-MMP activation; 0.061% of 360,000 active; HT1080 RFP-PRO-GFP cells, GFP/RFP ratio fluorescence, overnight; percent of plate control window, DMSO zero; P50281; AID 651647; GFP/RFP ratio change, % at 20 µM;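 active means GFP/RFP ratio change of at least 30% with cell ATP level not reduced by more than half and red fluorescence within 50% of control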; further: strong numbers were not always called active
#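 Material: RFP-PRO-GFP reporter HT1080 cells. Dosing: single-point 20 µM compound, 1% DMSO. Controls: DMSO and RFP-L50D-GFP cell wells. Timing: cells overnight before dosing, compound overnight, 37 °C, 5% CO2. Measure: GFP/RFP fluorescence ratio.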
# eIF4H FP inh – inhibitors of RNA binding by human eIF4H | Q15056 | eIF4H fluorescence polarization binding assay | inhibition, % at 35 µM | 0.94% of 290,000 active | AID 2012;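 active means 50% or more with normal probe brightness, or confirmed in later tests; about a fifth of its hits are not listed in these tables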;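 further: calls also rest on retests at 20 µM and on dose response follow-up; 0% = protein and probe with vehicle and 100% = probe without protein; strong numbers were not always called active; many hits fall short of the cut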
# Env fusion inh – blocks HIV Env-driven cell-cell fusion; HeLa-JRFL Env/CEM21 cell fusion, luciferase; 1.1% of 360,000 active; inhibition, % at 12.3 µM;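 active means mean replicate inhibition score of at least 50 and every replicate individually at or above 50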;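 further: 0% = plate neutral controls and 100% = maraviroc near 300 nM; one replicate is shown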
# PABP polyA inh – blocks human PABP binding to poly(A) RNA; inhibition, % at 35 µM; fluorescence polarization; 1% of 290,000 active; AID 2014;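 active means 50% or more with normal probe brightness, or confirmed in later tests; about a fifth of its hits are not listed in these tables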;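 further: calls also rest on retests at 20 µM and on dose response follow-up; controls were probe without protein and protein plus probe with vehicle; some compounds called inactive have numbers as strong as hits; many hits fall short of the cut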
# CSC inhib – cancer stem cell inhibition | cancer stem cell-like cells viability, luminescence | 1.1% of 300,000 active | inhibition, % at 7.5 µM;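 active means mean at 75% or more and at least half the replicates too; tested in HMLE shEcad cells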;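 further: 0% = median of negative and 100% = median of positive control wells; the first replicate is given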
# Yeast UUG start – modulators of start codon recognition fidelity in yeast; S. cerevisiae UUG-firefly luciferase reporter, luminescence/redox ratio; activity score, % at 18.7 µM; 0.13% of 350,000 active; AID 602363;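 active means replicate mean at a twofold rise or more, about +100% in these data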;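 further: firefly luciferase made from a UUG start codon reports start codon fidelity; reporter light over untreated wells divided by growth signal over untreated wells; some hits fall short of that in this replicate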
# Rce1 inhib – inhibitors of yeast Ras-converting enzyme | AID 2563 | 0.27% of 290,000 active | yeast membranes, quenched prenylated peptide cleavage fluorescence | calls only | Q03530;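 active means fall in fluorescence gain of 50% or more versus controls, with final raw signal at or below 3038400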;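 further: plate controls were neutral control wells for no effect and wells lacking membranes for full effect; tested at 10 µM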
# Target sequence (Q03530 whole entry, looked up): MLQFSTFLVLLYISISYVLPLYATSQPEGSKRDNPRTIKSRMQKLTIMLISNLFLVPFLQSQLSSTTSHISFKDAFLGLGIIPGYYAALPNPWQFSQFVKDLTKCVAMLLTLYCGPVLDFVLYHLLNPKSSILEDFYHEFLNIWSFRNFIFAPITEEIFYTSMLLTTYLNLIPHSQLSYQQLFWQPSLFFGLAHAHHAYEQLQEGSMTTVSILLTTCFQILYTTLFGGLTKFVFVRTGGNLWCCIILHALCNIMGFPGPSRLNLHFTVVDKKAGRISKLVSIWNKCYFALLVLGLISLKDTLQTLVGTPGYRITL
# eIF4H FP inh retest – recorded beside eIF4H FP inh, whose call it bears; inhibition, %; compound at 20 µM; confirmation average;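 mean of two retest wells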
# PABP polyA inh retest – further read-out of PABP polyA inh, marked with its call; inhibition, %; compound at 20 µM; confirmation repeats;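 mean of two retest wells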
# MT1-MMP act inh RFP – second read-out of MT1-MMP act inh, no call of its own (marks repeat the call); RFP signal change, %; measured here: RFP expression control read;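 0 = vehicle wells; hits needed this value within 50% of zero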
# * hit, by the source's call; i = inactive; x = not tested or not shown.
SMILES,MT1-MMP act inh,MT1-MMP act inh RFP,eIF4H FP inh,Env fusion inh,PABP polyA inh,CSC inhib,Yeast UUG start,Rce1 inhib,others
COc1cc(NC(C(=O)Nc2cccc(C(C)=O)c2)c2ccccc2)cc(OC)c1OC (configuration not stated),2,4,-4,x,7,-9,x,i,
CC1CC(=O)Nc2ccccc2N1S(=O)(=O)c1ccc(Cl)cc1 (configuration not stated),0,6,-11,6,-5,-9,x,i,
COc1cccc(C2=CC(c3cc(OC)ccc3OC)n3nnnc3N2)c1 (configuration not stated),-65,-12,5,x,-2,14,-24,i,
Cc1nn(CC(=O)OCC(=O)NC(C)c2ccccc2)c(C)c1[N+](=O)[O-] (configuration not stated),0,3,8,-1,2,x,x,i,
C=CCn1c(CCNC(=O)c2cccs2)nnc1SCC(=O)Nc1cccc(F)c1,-4,2,-1,5,2,-9,8,i,
Nc1nnc(SCCCOc2ccc(F)cc2)s1,3,0,-16,-16,-7,3,-23,i,
CS(=O)(=O)c1ccc(C(=O)OCC(=O)Nc2cccnc2Cl)cc1[N+](=O)[O-],2,-1,x,x,x,71,2,x,
O=C(CNc1cccc(C(F)(F)F)c1)N/N=C/c1cccc(Br)c1,1,3,-3,0,1,12,-2,i,
O=C(CCNC(=O)C1CCN(S(=O)(=O)c2ccccc2)CC1)NCc1ccccn1,1,3,-9,-2,2,-10,-14,i,
CCOC(=O)C1(C)CCN1C(=O)c1ccc(C#N)cc1 (configuration not stated),-1,1,x,9,x,x,-14,x,
Cc1ccccc1NC(=O)c1ccccc1,-3,-3,-11,-101,-12,-1,-16,i,
CCc1c(C)nc2ncnn2c1N1CCCC(C(=O)NCCc2ccccc2)C1 (configuration not stated),6,-4,-9,x,0,5,-23,i,
Cc1cc(C)cc(N(C(=O)c2csnn2)C(C(=O)NC(C)(C)C)c2cccs2)c1 (configuration not stated),0,-1,-34,x,-3,x,-21,i,
COc1ccc(OC)c(C2=NO[C@@](CC(=O)O)(C(=O)Nc3ccc4c(c3)OCCO4)C2)c1,-1,2,-2,-1,-5,-16,-13,i,
S=c1[nH]ccn1-c1cccc(Cl)c1Cl,3,1,-13,0,0,-3,x,i,
O=C(OCCN1CCN(C2=NS(=O)(=O)c3ccccc32)CC1)c1ccccc1F,0,5,2,18,2,8,-12,i,
CN(C(=O)CSc1nnc(-c2ccncc2)n1-c1ccccc1)C1CCS(=O)(=O)C1 (configuration not stated),-3,-1,2,23,4,-8,-31,i,
O=C(Nc1ccc2c(c1)Cc1ccccc1-2)c1cccnc1,0,-6,1,-56,-7,10,-10,i,
CCc1nc2c(OCc3cc(Cl)cc(Cl)c3)cccn2c1N(C)C(=O)Nc1ccccc1OC,-13,-13,x,11,x,x,-10,x,
CC(C(=O)N1CCN(c2ccccc2F)CC1)c1ccc([N+](=O)[O-])cc1 (configuration not stated),-4,-3,16,-20,9,2,1,i,
Cc1ccc(NS(=O)(=O)c2cc(C(=O)O)ccc2Cl)c(C)c1,-5,-1,1,-57,-2,x,-6,i,
CC(C)OC(=O)CSc1nnc(-c2cccnc2)n1N,3,3,-4,x,3,-13,-11,i,
O=C(CSc1nc2[nH]c(=O)cc(O)c2s1)Nc1ccc(Cl)c(C(F)(F)F)c1,-6,9,x,3,x,9,1,x,
COc1cc(-c2nn3c(-c4ccccc4)nnc3s2)cc(OC)c1OC,7,1,6,1,15,0,-12,i,
CC(C)Cc1cc(C(=O)Nc2c(F)cc(F)cc2Br)no1,-1,2,61*,-8,-8,-1,-5,i,eIF4H FP inh retest=72*;PABP polyA inh retest=33

# Next part; it opens with the 2 that closed the last part.
SMILES,MT1-MMP act inh,MT1-MMP act inh RFP,eIF4H FP inh,Env fusion inh,PABP polyA inh,CSC inhib,Yeast UUG start,Rce1 inhib,others
COc1cc(-c2nn3c(-c4ccccc4)nnc3s2)cc(OC)c1OC,7,1,6,1,15,0,-12,i,
CC(C)Cc1cc(C(=O)Nc2c(F)cc(F)cc2Br)no1,-1,2,61*,-8,-8,-1,-5,i,eIF4H FP inh retest=72*;PABP polyA inh retest=33
CC(C)c1cccc(O)c(=O)c1,5,2,15,x,41,14,3,i,
CCCCOC(=O)CCc1c(C)[nH]c(=O)c(C#N)c1C,-2,2,-11,x,5,6,18,i,
c1ccc(CSc2nc3ncccn3n2)cc1,-2,3,x,x,x,-11,-30,x,
Cc1cc(F)ccc1C(O)c1ncc(-c2ccccc2Cl)[nH]1 (configuration not stated),-4,-2,x,8,x,x,-23,x,
Nc1ncnc(Oc2cccc(C(F)(F)F)c2)c1[N+](=O)[O-],0,2,-15,-9,11,-3,4,i,
c1ccc(-c2nn3c(Cn4cnc5ccccc54)nnc3s2)cc1,6,-2,-4,x,4,1,-8,i,
CC(C)OC(=O)C1C2C=CC3(CN(C(C)c4ccc(Br)cc4)C(=O)C13)O2 (configuration not stated),0,3,-13,-1,1,-14,7,i,
Cc1ccccc1Cn1c(=O)[nH]c2ccccc21,3,-4,1,2,6,10,-4,i,
O=C(NCCCO)c1cc2c([nH]c3ccccc32)c(-c2ccccc2)n1,2,-4,0,17,0,2,10,i,
Cc1cc(NC(=O)CCC(=O)N(Cc2cccs2)C(C(=O)NC2CCCC2)c2cccnc2)no1 (configuration not stated),-3,4,-6,-44,-7,-7,0,i,
CCOc1ccc(S(=O)(=O)Nc2cccc(Cl)c2)cc1,3,-9,x,0,x,59,3,i,
O=Cc1ccc(OCc2cn(CC(=O)c3ccc(O)cc3)nn2)cc1,1,6,x,-92,x,x,-22,x,
CN(Cc1ccccc1)c1ncc(C=O)s1,1,1,-4,-9,2,-1,-17,i,
N#Cc1cccc(NC(=O)CNC(=O)Cc2ccccc2)c1,-1,-1,7,-1,-3,-15,-9,i,
Cc1c(C(=O)O)[nH]c2ccc([N+](=O)[O-])cc12,-1,3,13,3,-7,x,x,x,
Cc1ccc(S(=O)(=O)NCC(=O)N2CCOCCOCCOCCOCC2)cc1,-2,0,-4,1,-3,x,-23,i,
CCCCCCn1c(CN2CCCCC2C)nc2c1c(=O)n(C)c(=O)n2C (configuration not stated),4,4,6,x,-4,18,-10,i,
CC1CCc2c(sc(/N=C/c3cccnc3)c2C(N)=O)C1 (configuration not stated),-1,-2,4,-13,-4,5,-8,i,
CC1CCN(C(C)C(=O)Nc2cc(S(=O)(=O)N3CCCCC3)ccc2Cl)CC1 (configuration not stated),-1,-6,x,x,x,21,-14,x,
O=C(CCC(=O)N(CC(=O)NC1CCCC1)c1cccc(F)c1)Nc1nccs1,-4,-3,-1,-11,1,13,7,i,
COc1ccc(NC(=O)CSc2ncnc3c2sc2ccccc23)c(OC)c1,0,-4,-7,9,22,41,x,i,
CCOC(=O)c1ccc(NC(=O)CCn2c(=O)oc3ccccc32)cc1,-3,1,-1,-6,-1,-2,8,i,
CCCCC(=O)O[C@H]1CC[C@H]2[C@@H]3CCc4cc(O)ccc4[C@H]3CC[C@]12C,0,-1,4,-48,-2,24,-5,i,
COc1ccc(C2CC(=O)C3=C(C2)Nc2ccccc2N(C(=O)C2CC2)C3c2cccnc2)cc1OC (configuration not stated),7,2,11,-17,2,-12,-19,i,
O=S(=O)(c1ccc(N2CCN(CCO)CC2)nc1)N1CCOCC1,8,8,x,11,x,-2,-10,i,

# Gathered by group: the compounds so far containing a thiophene ring, fused or not (5)
SMILES,MT1-MMP act inh,MT1-MMP act inh RFP,eIF4H FP inh,Env fusion inh,PABP polyA inh,CSC inhib,Yeast UUG start,Rce1 inhib,others
C=CCn1c(CCNC(=O)c2cccs2)nnc1SCC(=O)Nc1cccc(F)c1,-4,2,-1,5,2,-9,8,i,
Cc1cc(C)cc(N(C(=O)c2csnn2)C(C(=O)NC(C)(C)C)c2cccs2)c1 (configuration not stated),0,-1,-34,x,-3,x,-21,i,
Cc1cc(NC(=O)CCC(=O)N(Cc2cccs2)C(C(=O)NC2CCCC2)c2cccnc2)no1 (configuration not stated),-3,4,-6,-44,-7,-7,0,i,
CC1CCc2c(sc(/N=C/c3cccnc3)c2C(N)=O)C1 (configuration not stated),-1,-2,4,-13,-4,5,-8,i,
COc1ccc(NC(=O)CSc2ncnc3c2sc2ccccc23)c(OC)c1,0,-4,-7,9,22,41,x,i,

# Following part:
SMILES,MT1-MMP act inh,MT1-MMP act inh RFP,eIF4H FP inh,Env fusion inh,PABP polyA inh,CSC inhib,Yeast UUG start,Rce1 inhib,others
CN(C)S(=O)(=O)c1cccn1-c1ncc(C(F)(F)F)cc1Cl,13,-6,-7,12,-4,-24,-10,i,
O=C(CN(C(=O)c1cccc([N+](=O)[O-])c1)C1CCCCC1)Nc1ccc(Cl)c([N+](=O)[O-])c1,-2,-8,-6,1,-1,5,-10,i,
CCN(CC)C(=O)Cn1c(=O)n(CCCC(=O)NCc2ccccc2)c(=O)c2sccc21,8,3,-2,-3,5,-4,x,i,
C=CCn1c(N)c(C(=O)OC(C)CC)c2nc3ccccc3nc21 (configuration not stated),-10,5,3,x,2,x,-13,i,
CNc1cccc(-c2ccccc2C(C)=O)n1,-1,1,x,-11,x,x,-16,x,
CC1=C(C(=O)N2CCCC(CCC(=O)NCc3ccccc3F)C2)OCCO1 (configuration not stated),3,0,1,1,3,0,-10,i,
CC(C)(C)NC(=O)CCc1nnc(Cc2c[nH]c3ccccc23)o1,-1,2,2,4,8,-1,x,i,
CC1COc2ccccc2N1S(=O)(=O)c1ccccc1 (configuration not stated),2,3,-2,14,12,-1,x,x,
C=CCn1c(SCC(=O)OC)nc2sc3c(c2c1=O)CCN(C)C3,x,x,18,x,26,0,x,i,
C[C@]12CC[C@@H]3c4ccc(O)cc4CC[C@H]3[C@@H]1CC[C@@H]2OC(=O)CCC(=O)O,3,0,-5,-38,-11,1,-20,i,
COc1cc(/C=N\NC(=O)c2ccc(Cn3nc([N+](=O)[O-])c(Cl)c3C)o2)ccc1O,1,-3,-11,x,11,-3,x,i,
CCC(C)c1ccccc1NC(=O)C(C)OC(=O)CN1C(=O)NC(C)(C)C1=O (configuration not stated),-2,5,x,-5,x,-9,-21,i,
Cc1noc(C)c1COC(=O)c1ccc(F)c(S(=O)(=O)N2CCCCC2)c1,2,-10,8,15,-9,12,x,i,
COc1ccc(NC(=O)C(c2cc3c(cc2[N+](=O)[O-])OCO3)N2CCN(C=O)CC2)cc1 (configuration not stated),-2,7,24,4,-6,6,x,i,
CCNc1nc(NCC)nc(N(C#N)CCOc2ccccc2)n1,-7,-3,-11,18,4,31,x,i,
CC1CCN(C(=O)COC(=O)c2ccc([N+](=O)[O-])o2)CC1,1,4,x,15,x,-17,-15,x,
CCOc1ccc(-n2c(Cc3cc(=O)[nH]c(=O)[nH]3)nnc2SCC(=O)OC)cc1,0,1,-6,-13,-7,-18,-6,i,
CC(C)(C)Nc1ncnc2c1cnn2-c1ccccc1,-4,-4,2,-278,3,-2,-33,i,
O=C1CCCN1CC1CCCN(Cc2nc(COc3ccccc3)no2)C1 (configuration not stated),-2,-2,-7,14,9,-2,-12,i,
C=CC[C@H](CC(=O)N[C@H](CO)Cc1ccccc1)C(=O)N[C@@H](COC(=O)[C@@H](CC=C)CC(=O)OC(C)(C)C)Cc1c[nH]c2ccccc12,1,-17,x,-113,x,3,-16,x,
COc1ccc(-n2nnnc2-c2cccc(OC)c2)cc1,-1,-11,-7,56*,13,-2,-25,i,
O[C@@H]1CN(Cc2ccccc2Cl)CC[C@H]1N1CCOCC1,-1,5,-5,-5,3,3,-7,i,
CN(CC(=O)Nc1ccc(S(=O)(=O)N(C)C)cc1)Cc1ccc(C(F)(F)F)cc1,-3,-4,-1,16,11,-6,-10,i,
NS(=O)(=O)c1ccc(CCNC(=O)c2ccco2)cc1,-1,2,-7,15,-9,-6,x,i,
CCCn1c(O)c(N=NC(=O)c2ccco2)c2ccccc21,8,3,15,9,-2,0,-5,i,
Cc1ccc(C)c(S(=O)(=O)NCC(c2ccco2)N2CCc3ccccc3C2)c1 (configuration not stated),-1,-1,x,12,x,1,4,i,
